# Env fusion inh: blocks HIV Env-driven cell-cell fusion; HeLa-JRFL Env/CEM21 cell fusion, luciferase; inhibition, % at 12.3 µM; 360,000 tested, 1.1% active; AID 651610;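 active = mean replicate inhibition score of at least 50 and every replicate individually at or above 50; inconclusive = only one of the two criteria met; inactive = mean below 50 and not all replicates reaching 50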;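 also: 0% = plate neutral controls and 100% = maraviroc near 300 nM; one replicate is shown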
# Yeast UUG start: yeast start codon fidelity modulation; activity score, % at 18.7 µM; 350,000 tested, 0.13% active; S. cerevisiae UUG-firefly luciferase reporter, luminescence/redox ratio;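 active = replicate mean at a twofold rise or more, about +100% in these data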;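 also: firefly luciferase made from a UUG start codon reports start codon fidelity; reporter light over untreated wells divided by growth signal over untreated wells; some hits fall short of that in this replicate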
# Numbers without * were called inactive; ? = inconclusive; & = joins results of further samples; [ ] = remark or other dose. Not all compounds are listed, so the mix of outcomes need not match the whole.
# The first 3 records (preview)
SMILES,Env fusion inh,Yeast UUG start
Cc1noc(C)c1NC(=O)Nc1cccc2c1O[C@H](CN(C)C(=O)Nc1ccccc1)[C@H](C)CN([C@H](C)CO)C2=O,-17[16.7 µM],-3
CCC(=O)Nc1ccc2c(c1)C(=O)N(C)[C@H]1CC[C@H](CC(=O)NCCCN(C)C)O[C@@H]1CO2,2[16.7 µM],-8
COc1ccc(NC(=O)N(C)C[C@H]2OCCCC[C@@H](C)Oc3ccc(NC(=O)Nc4ccc(F)cc4)cc3C(=O)N([C@@H](C)CO)C[C@H]2C)cc1,-12[16.7 µM],-4

# The list itself, previewed entries included:
SMILES,Env fusion inh,Yeast UUG start
Cc1noc(C)c1NC(=O)Nc1cccc2c1O[C@H](CN(C)C(=O)Nc1ccccc1)[C@H](C)CN([C@H](C)CO)C2=O,-17[16.7 µM],-3
CCC(=O)Nc1ccc2c(c1)C(=O)N(C)[C@H]1CC[C@H](CC(=O)NCCCN(C)C)O[C@@H]1CO2,2[16.7 µM],-8
COc1ccc(NC(=O)N(C)C[C@H]2OCCCC[C@@H](C)Oc3ccc(NC(=O)Nc4ccc(F)cc4)cc3C(=O)N([C@@H](C)CO)C[C@H]2C)cc1,-12[16.7 µM],-4
COc1ccc(S(=O)(=O)Nc2ccc3c(c2)CC(=O)N([C@H](C)CO)C[C@H](C)[C@@H](CN(C)S(=O)(=O)c2ccc(OC)cc2)O3)cc1,7[16.7 µM],-7
COCC(=O)N(C)C[C@@H]1Oc2cc(C#CCN(C)C)ccc2S(=O)(=O)N([C@H](C)CO)C[C@H]1C,-6[16.7 µM],-5
O=C(Nc1ccc2c(c1)[C@H]1C[C@H](CC(=O)N3CCCCC3)O[C@H](CO)[C@H]1O2)C1CCC1,-13[16.7 µM],7
CCCNC(=O)N[C@@H]1C=C[C@@H](CC(=O)NC2CCC2)O[C@@H]1CO,-23[16.7 µM],-2
C[C@@H]1CN([C@H](C)CO)C(=O)Cc2cc(NC(=O)Cc3cn(C)c4ccccc34)ccc2O[C@H]1CN(C)S(=O)(=O)c1cccs1,-12[16.7 µM],-2
CC(C)NC(=O)N(C)C[C@@H]1OCCCC[C@@H](C)Oc2ccc(NC(=O)Nc3cccc4ccccc34)cc2C(=O)N([C@@H](C)CO)C[C@@H]1C,4[16.7 µM],-17
C[C@@H]1CCCCO[C@@H](CN(C)C(=O)c2ccncc2)[C@H](C)CN([C@H](C)CO)C(=O)c2cc(NS(=O)(=O)c3ccc(F)cc3)ccc2O1,-14[16.7 µM],1
COCC(=O)N(C)C[C@@H]1Oc2ncc(C#Cc3cccnc3)cc2C(=O)N([C@@H](C)CO)C[C@H]1C,-25[16.7 µM],60
C[C@H](CO)N1C[C@H](C)[C@H](CN(C)C(=O)Nc2ccc(F)cc2)Oc2ncc(-c3ccc(C#N)cc3)cc2C1=O,-11[16.7 µM],16
O=C(C[C@@H]1CC[C@H](NC(=O)c2ccc3c(c2)OCO3)[C@H](CO)O1)NC1Cc2ccccc2C1,3[16.7 µM],-2
O=C(Nc1ccc2c(c1)[C@@H]1C[C@@H](CC(=O)N3CCCCC3)O[C@@H](CO)[C@@H]1O2)C1CCC1,-8[16.7 µM],-7
CCC(=O)Nc1ccc2c(c1)C(=O)N(C)[C@@H]1CC[C@H](CC(=O)N3CCc4ccccc4C3)O[C@H]1CO2,11[16.7 µM],-10
C[C@H](CO)N1C[C@H](C)[C@H](CN(C)Cc2ccc(C(=O)O)cc2)Oc2c(NC(=O)Nc3ccc(C(F)(F)F)cc3)cccc2C1=O,-16[16.7 µM],27
Cc1noc(C)c1S(=O)(=O)Nc1ccc2c(c1)C(=O)N([C@@H](C)CO)C[C@H](C)[C@H](CN(C)S(C)(=O)=O)OCCCC[C@@H](C)O2,-2[16.7 µM],38
Cc1cccc(S(=O)(=O)N[C@H]2CC[C@H](CCNS(=O)(=O)c3ccccc3F)O[C@@H]2CO)c1,?,39
COCC(=O)Nc1ccc2c(c1)C(=O)N(C)C[C@@H](OC)[C@@H](C)CN(CCc1ccccc1)[C@H](C)CO2,6[16.7 µM],7
C[C@H](CO)N1C[C@H](C)[C@@H](CN(C)C(=O)c2cccc(F)c2)Oc2ncc(C#CCN(C)C)cc2C1=O,3[16.7 µM],-15
COC(=O)c1c2oc(c1C(=O)OC)C(=O)N[C@H](Cc1ccccc1)Cn1cc(nn1)[C@H](Cc1ccccc1)NC(=O)N[C@H](CO)CC2,22[16.7 µM],71
C[C@H]1CN([C@@H](C)CO)C(=O)c2cc(-c3ccccc3F)cnc2O[C@@H]1CN(C)C(=O)C1CCCCC1,25[16.7 µM],13
COc1ccc(NC(=O)N[C@@H]2CC[C@@H](CCn3cc(-c4ccc(F)cc4)nn3)O[C@H]2CO)cc1,6[16.7 µM],-25
C[C@@H]1CN([C@@H](C)CO)C(=O)c2cc(NC(=O)Cc3ccccc3)ccc2O[C@@H](C)CCCCO[C@@H]1CN(C)C(=O)CCC(F)(F)F,4[16.7 µM],12
C[C@@H]1CN([C@@H](C)CO)C(=O)Cc2cc(N(C)C)ccc2O[C@H]1CN(C)C(=O)Nc1ccccc1,8[16.7 µM],-1
C[C@@H]1CN([C@@H](C)CO)C(=O)c2cccc(NC(=O)Nc3ccc4c(c3)OCO4)c2O[C@H]1CN(C)C(=O)Nc1cccc2ccccc12,-14[16.7 µM],-3
COCC#Cc1cnc2c(c1)C(=O)N([C@H](C)CO)C[C@@H](C)[C@H](CN(C)C(=O)c1ccc3c(c1)OCO3)O2,-26[16.7 µM],6
COc1ccc(NC(=O)N(C)C[C@@H]2OCCCC[C@@H](C)Oc3ccc(NC(=O)CCCCCC(=O)Nc4ccccc4N)cc3C(=O)N([C@H](C)CO)C[C@@H]2C)cc1,4[16.7 µM],-1
C[C@H](CO)N1C[C@H](C)[C@H](CN(C)CC2CCCCC2)Oc2c(NS(C)(=O)=O)cccc2C1=O,-27[16.7 µM],13
Cc1noc(C)c1NC(=O)N(C)C[C@H]1Oc2ncc(C#CCC(C)C)cc2C(=O)N([C@H](C)CO)C[C@H]1C,-19[16.7 µM],5
C[C@H](CO)N1C[C@H](C)[C@@H](CN(C)CC2CCCCC2)OCCCC[C@H](C)Oc2ccc(NC(=O)Nc3ccccc3)cc2C1=O,-34[16.7 µM],26
O=C(C[C@@H]1CC[C@H](NC(=O)C2CC2)[C@@H](CO)O1)NCc1ccncc1,-23[16.7 µM],-2
C[C@H](CO)N1C[C@H](C)[C@H](CN(C)C)Oc2cc(C#Cc3ccncc3)ccc2S1(=O)=O,6[16.7 µM],-22
O=C(Nc1ccc(C(F)(F)F)cc1)N[C@H]1CC[C@H](CC(=O)N2CCCCC2)O[C@H]1CO,-1[16.7 µM],5
C[C@@H]1CCCCO[C@H](CN(C)C(=O)c2ccncc2)[C@@H](C)CN([C@H](C)CO)C(=O)c2cc(NS(=O)(=O)c3cn(C)cn3)ccc2O1,2[16.7 µM],-4
C[C@@H]1CN([C@H](C)CO)C(=O)c2cccc(NS(=O)(=O)c3ccc(Cl)cc3)c2O[C@H]1CN(C)CC1CC1,-3[16.7 µM],-1
C[C@H]1CN([C@@H](C)CO)C(=O)c2cccc(NC(=O)Nc3ccc4c(c3)OCO4)c2O[C@@H]1CN(C)C(=O)Nc1ccc2c(c1)OCO2,-23[16.7 µM],27
C[C@@H]1CN([C@H](C)CO)C(=O)c2cc(N(C)C)ccc2O[C@H]1CN(C)Cc1ccccc1,0[16.7 µM],-23
C[C@@H]1CN([C@H](C)CO)C(=O)c2cccc(NC(=O)c3nc4ccccc4s3)c2O[C@@H]1CN(C)Cc1ccc(Cl)c(Cl)c1,-75[16.7 µM],10
C[C@H]1CN([C@@H](C)CO)S(=O)(=O)c2ccc(-c3ccc(F)cc3)cc2O[C@@H]1CN(C)C(=O)c1ccccc1F,28[16.7 µM],-3
CCNC(=O)Nc1ccc2c(c1)C(=O)N(C)[C@H]1CC[C@H](CC(=O)NCc3ccccc3F)O[C@@H]1CO2,7[16.7 µM],-2
Cc1ccc(S(=O)(=O)Nc2cccc3c2O[C@@H](CN(C)S(=O)(=O)c2ccc(F)cc2)[C@H](C)CN([C@@H](C)CO)C3=O)cc1,25[16.7 µM],-10
C[C@H](CO)N1C[C@H](C)[C@@H](CN(C)S(=O)(=O)c2ccc(F)cc2)Oc2ccc(NC(=O)C3CCCCC3)cc2C1=O,-12,-20&6
Cc1noc(C)c1S(=O)(=O)Nc1ccc2c(c1)CC(=O)N([C@@H](C)CO)C[C@@H](C)[C@H](CN(C)C(=O)Nc1ccc(F)cc1)O2,11[16.7 µM],10
C[C@@H]1CN([C@@H](C)CO)C(=O)c2cc(-c3cccc(F)c3)cnc2O[C@H]1CN(C)C(=O)c1cnccn1,8[16.7 µM],-5
Cc1cccc(NC(=O)Nc2ccc3c(c2)C(=O)N(C)[C@H]2CC[C@H](CC(=O)O)O[C@@H]2CO3)c1,-3[16.7 µM],-1
C[C@@H]1CCCCO[C@H](CN(C)C(=O)Nc2ccc(C(F)(F)F)cc2)[C@H](C)CN([C@H](C)CO)C(=O)c2cc(NC(=O)Nc3ccccc3)ccc2O1,6[16.7 µM],-1
Cc1noc(C)c1NC(=O)N(C)C[C@@H]1OCCCC[C@H](C)Oc2ccc(NS(=O)(=O)c3cn(C)cn3)cc2C(=O)N([C@H](C)CO)C[C@@H]1C,-12[16.7 µM],-8

# Rewritten bar-delimited: 5 of the compounds above
Compound | Env fusion inh | Yeast UUG start
Cc1ccc(S(=O)(=O)Nc2cccc3c2O[C@@H](CN(C)S(=O)(=O)c2ccc(F)cc2)[C@H](C)CN([C@@H](C)CO)C3=O)cc1 | 25[16.7 µM] | -10
C[C@H](CO)N1C[C@H](C)[C@@H](CN(C)S(=O)(=O)c2ccc(F)cc2)Oc2ccc(NC(=O)C3CCCCC3)cc2C1=O | -12 | -20&6
Cc1noc(C)c1S(=O)(=O)Nc1ccc2c(c1)CC(=O)N([C@@H](C)CO)C[C@@H](C)[C@H](CN(C)C(=O)Nc1ccc(F)cc1)O2 | 11[16.7 µM] | 10
C[C@@H]1CN([C@@H](C)CO)C(=O)c2cc(-c3cccc(F)c3)cnc2O[C@H]1CN(C)C(=O)c1cnccn1 | 8[16.7 µM] | -5
Cc1cccc(NC(=O)Nc2ccc3c(c2)C(=O)N(C)[C@H]2CC[C@H](CC(=O)O)O[C@@H]2CO3)c1 | -3[16.7 µM] | -1

# (more compounds)
SMILES,Env fusion inh,Yeast UUG start
Cc1ccc(S(=O)(=O)N(C)C[C@@H]2Oc3ncc(-c4ccncc4)cc3C(=O)N([C@H](C)CO)C[C@@H]2C)cc1,1[16.7 µM],7
C[C@@H]1CN([C@H](C)CO)C(=O)c2cc(NC(=O)NC3CCCCC3)ccc2O[C@@H]1CN(C)C(=O)Nc1ccc(C(F)(F)F)cc1,-2[16.7 µM],-18
C[C@H]1CN([C@@H](C)CO)C(=O)c2cccc(NC(=O)C3CCOCC3)c2O[C@H]1CN(C)Cc1ccc2c(c1)OCO2,15[16.7 µM],2
C[C@@H]1CN([C@H](C)CO)C(=O)c2cccc(NS(=O)(=O)c3ccccc3)c2O[C@@H]1CN(C)C(=O)Nc1cccc2ccccc12,-17[16.7 µM],3
O=C(N[C@H]1CC[C@H](CC(=O)N2CCN(c3ccccc3)CC2)O[C@@H]1CO)c1ccccc1,-2[16.7 µM],13
CN(C)CC(=O)N1[C@H](CO)[C@H](c2ccc(/C=C/c3ccccc3)cc2)[C@@H]1C#N,-5[16.7 µM],-5
C[C@H]1CN([C@@H](C)CO)C(=O)c2cc(NC(=O)C3CCCCC3)ccc2O[C@@H]1CN(C)S(C)(=O)=O,-8[16.7 µM],0
CCCNC(=O)N1C[C@H](O)COC[C@H]2O[C@H](CC(=O)NCc3ccc(Cl)c(Cl)c3)CC[C@@H]21,9[16.7 µM],-7
C[C@@H]1CN([C@@H](C)CO)C(=O)Cc2cc(NC(=O)Cn3cnnn3)ccc2O[C@@H]1CN(C)C(=O)Nc1ccccc1,4[16.7 µM],12
CNC(=O)C[C@@H]1CC[C@@H]2[C@H](COc3ccc(NC(=O)C4CCCCC4)cc3C(=O)N2C)O1,-111[16.7 µM],15
C=CCN1C(=O)[C@@]2(O[C@@H](CCO)[C@H]([Si](C)(C)c3ccc(OC)cc3)[C@H]2C)c2cc(N3CCC3=O)ccc21,14[16.7 µM],0
C[C@H](CO)N1C[C@H](C)[C@@H](CN(C)Cc2ccccc2)Oc2c(NS(C)(=O)=O)cccc2C1=O,3[16.7 µM],-5&7
CO[C@H]1CN(C)C(=O)c2cc(NC(C)=O)ccc2OC[C@H](C)N(Cc2ccccc2C(=O)O)C[C@@H]1C,-7[16.7 µM],14
C[C@@H]1CN([C@@H](C)CO)C(=O)c2cc(NS(C)(=O)=O)ccc2O[C@@H](C)CCCCO[C@H]1CN(C)Cc1ccc(C(=O)O)cc1,-10[16.7 µM],-2
CC(C)NC(=O)Nc1ccc2c(c1)C(=O)N([C@@H](C)CO)C[C@H](C)[C@H](CN(C)Cc1ccccc1)OCCCC[C@H](C)O2,-13[16.7 µM],46
C[C@@H]1CN([C@H](C)CO)C(=O)c2cc(NC(=O)Nc3ccccc3)ccc2O[C@H]1CN(C)S(=O)(=O)c1ccc(F)cc1,-6[16.7 µM],4
C[C@@H]1CCCCO[C@@H](CN(C)S(=O)(=O)c2ccccc2)[C@H](C)CN([C@@H](C)CO)C(=O)c2cc(NC(=O)Cc3ccccc3)ccc2O1,-31[16.7 µM],24
O=C(C[C@@H]1CC[C@H](NC(=O)NC2CCCCC2)[C@@H](CO)O1)NCc1ccccc1,5[16.7 µM],-11
C[C@H](CO)N1C[C@H](C)[C@@H](CN(C)Cc2ccccc2)Oc2ccc(NC(=O)Nc3ccc4c(c3)OCO4)cc2CC1=O,-13[16.7 µM],10

# Compound activity (PubChem BioAssay)
